# Source: PubChem
# BJeLR lethal – MLPCN primary cell-based screen for lethality selective to Ras in HRASV12 cells; 300,000 tested, 0.17% active; inhibition, % (test concentration not listed); BJeLR (HRASV12) viability, CellTiter-Glo ATP luminescence, 48 h; reference of the scale not given here;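 active = replicate mean above 50%; inconclusive = above 50% but judged a plate artefact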;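 also: 50 nL library stock added to about 25 µL; numbers are from one replicate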
# Sa RN4220 lethal – growth inhibition of S. aureus RN4220, primary screen, OD600; 330,000 tested, 0.33% active; 16 h; inhibition, % (no concentration beside the values); AID 1259311, 2017;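 active = z-score of -3 or lower and OD600 up to 0.18 on both plates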;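 also: plate controls were untreated cells for no effect and reference antibiotic for full effect; stock transfer was 100 nL into about 80 µL; one replicate is shown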
# Bead autofluor – compound fluorescence in toxin protease inhibitor counterscreen | compound autofluorescence counterscreen, microsphere flow cytometry; active compounds read high | fluorescence intensity (test concentration not listed) | 360,000 tested, 3.1% active | AID 624483;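 active = at least 3 SD above the mean of all compounds, about 16000 in these data; inconclusive = too few beads counted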;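 also: 100 nL of 1 mM stock went into each well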
# PrP 5UTR inh – inhibition of PrP 5' UTR reporter expression; 340,000 tested, 0.35% active; cell-based PrP 5' UTR mRNA reporter, plate reader; inhibition, % (concentration not given with the values);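 active = every replicate at 50% or more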;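 also: 0 = median of the neutral control wells; tested in H4 reporter cells; numbers are from one replicate; inactives centre near -14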
# ugtP null kill – growth inhibition of ugtP-null S. aureus, primary screen, RN4220 ugtP deletion, OD600; 16 h; some inactives read as strong as hits; growth inhibition, % (concentration not given with the values); 330,000 tested, 0.54% active; AID 1259309, 2017;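 active = z-score under -3 and OD600 up to 0.15 on both plates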;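 also: plate controls were untreated wells for no effect and antibiotic for full effect; wells of about 80 µL received 100 nL stock; the first replicate is given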
# Mtb hypoxia inh – PubChem AID 1159583; M. tuberculosis hypoxia-regulated fluorescent reporter, fluorescence; fluorescence inhibition, % (no concentration beside the values); 300,000 tested, 0.1% active;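 active = 35 to 45% if threefold the growth effect, above 45% if 1.5-fold the growth effect; inactive = the rest, general growth blockers included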;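 also: wells of about 50 µL received 100 nL stock; 0% = vehicle wells and 100% = reference inhibitor wells; whole bacteria with a GFP reporter of the hypoxia response; strong numbers were not always called active; many hits fall short of the cut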
# Mtb hypoxia inh growth – second read-out of Mtb hypoxia inh, no call of its own (marks repeat the call); growth inhibition, %; measured here: M. tuberculosis growth (absorbance);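 0% = vehicle and 100% = reference antibiotic; read after six days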
# An asterisk follows results filed as active; u = inconclusive; x = no result given.
SMILES,BJeLR lethal,Sa RN4220 lethal,Bead autofluor,PrP 5UTR inh,ugtP null kill,Mtb hypoxia inh,Mtb hypoxia inh growth
CCCN(CC1CC1)C(=O)COC(=O)c1ccc(CNS(=O)(=O)c2ccc(F)c(Cl)c2)cc1,-8,0.3,2361,-22,1,10,10
COc1ccc(C(=O)CN2CCN(S(=O)(=O)c3cccc([N+](=O)[O-])c3)CC2)cc1OC,7,x,2225,-15,x,x,x
COC(=O)C1(C(=O)OC)C(C(=O)c2ccccc2)C1c1ccccc1 (centres undefined),x,3.6,4052,-31,4,12,12
COC(=O)COc1ccc(C2NC(=O)NC(c3ccccc3)=C2C(C)=O)cc1Br (centres undefined),-3,6.2,3610,-14,3,16,15
CCOc1ccccc1C(=O)NC1CC2CCCC(C1)N2C1CC1 (centres undefined),-8,-2.2,8118,-22,-4,13,9
COc1ccc(NC(=O)c2cccc(Cl)c2)c[n+]1[O-],-7,1.9,4025,-16,14,15,5
Cc1c(S(=O)(=O)N2CCCC(C(=O)O)C2)cnn1C (centres undefined),7,4.9,4811,-16,0,6,2
O=C(C1=C(O)C(=O)N(CCN2CCOCC2)C1c1ccc(F)cc1)c1cccs1 (centres undefined),8,1.6,3298,-39,1,-3,1
C(=NN1CCCCCC1)c1ccccc1,x,11,4442,-52,5,-2,-2
CC1CCCCC1NC(=O)CCNS(=O)(=O)c1ccc2c(c1)CCC(=O)N2 (centres undefined),-1,2.3,5691,-4,6,7,2
COc1ccc(OC)c2[nH]c(=O)c(CCNC(=S)NC(C)(C)C)cc12,-11,6.2,2106,-25,7,-7,10
COC(=O)c1ccccc1NC(NC(=O)c1ccco1)C(=O)c1ccc(C)cc1 (centres undefined),9,-0.7,5353,-26,-12,5,4
CCOc1ccc2ccccc2c1C(=O)NCC(c1ccc(N(C)C)cc1)N(C)C (centres undefined),-3,1.7,6834,-31,-3,16,8
Clc1ccc(-c2ccc(-c3nn4c(-c5ccco5)nnc4s3)o2)cc1,6,13,7729,-23,-12,1,-2
CCn1c(CCNC(=O)c2ccc(Cl)cc2)nnc1SCC(=O)NC1CCCC1,17,6.5,11915,x,-1,-2,2
CCC(=O)c1ccc(OCC(O)Cn2cnc3ccccc32)cc1 (centres undefined),-1,-1.1,4153,-14,9,x,x
Oc1c(Br)cc(-c2ccccc2)cc1Br,x,24,4310,-20,8,18,10
Cc1c(Cl)cccc1NC(=O)CNC(=O)c1cn(-c2ccccc2)nc1-c1cccnc1,x,-1.7,6976,-15,-9,-10,6
CCC(Nc1ccc(OC)cc1)C(=O)NN=Cc1ccc([N+](=O)[O-])cc1 (centres undefined),x,1.5,x,x,0,-6,-10
COc1ccc(Cl)cc1C(=O)NNC(=O)CSc1nnnn1C,0,-0.1,4120,-24,1,1,-2
Cc1cc(C(=O)N2CCc3ccccc3C2)no1,-3,3.3,6017,-36,2,14,0
Cc1ccc(Cl)c(NC(=O)COC(=O)c2cc[n+]([O-])cc2)c1Cl,x,6.1,2815,-18,13,5,3
COc1ccc2cc(S(=O)(=O)Nc3ccccn3)ccc2c1,-12,3.2,4192,-24,14,6,2
CCC(=O)Nc1ccc(C(=O)CSc2nnc(-c3ccc(NS(=O)(=O)CC)cc3)o2)cc1OC,10,5.5,4000,13,1,2,-1
Cc1ccc(CN2CCc3c(OCc4ccc(F)cc4)cccc3C2=O)cc1,12,-3.9,2475,-13,28,0,6

# Compound profiles, as listed above. Values in the order: BJeLR lethal | Sa RN4220 lethal | Bead autofluor | PrP 5UTR inh | ugtP null kill | Mtb hypoxia inh | Mtb hypoxia inh growth
# `Oc1c(Br)cc(-c2ccccc2)cc1Br` is listed with x | 24 | 4310 | -20 | 8 | 18 | 10
# `CCC(Nc1ccc(OC)cc1)C(=O)NN=Cc1ccc([N+](=O)[O-])cc1` (centres undefined) is listed with x | 1.5 | x | x | 0 | -6 | -10
# `Cc1cc(C(=O)N2CCc3ccccc3C2)no1` is listed with -3 | 3.3 | 6017 | -36 | 2 | 14 | 0

# The list continues:
SMILES,BJeLR lethal,Sa RN4220 lethal,Bead autofluor,PrP 5UTR inh,ugtP null kill,Mtb hypoxia inh,Mtb hypoxia inh growth
CCCC(=O)OC1CCS(=O)(=O)c2sccc21 (centres undefined),3,-0.2,4502,-77,4,9,5
COC(=O)C1C(c2ccc(OC)cc2)Nc2nnc(C(F)(F)F)n2C1(C)O (centres undefined),-1,4.5,3743,-10,1,2,3
COC(=O)C1=C(C)N(c2ccc(F)cc2)/C(=C/c2ccc(O)cc2)C1=O,-5,19,3849,-4,-7,17,0
COc1ccc(C=NNc2nnc(Cc3ccc(OC)c(OC)c3)c(=O)[nH]2)cc1,x,0.2,x,x,5,-6,4
CN(C)CC(O)c1ccc(C=Cc2ccc(Cl)cc2)cc1 (centres undefined),x,2.8,3298,-52,-6,19,17
CC(=O)c1c(C)oc2c1C(=O)c1ccccc1C2=O,2,22,8484,-73,5,9,1
COc1ccc(OC)c(/C=C/c2nc3ccccc3[nH]c2=O)c1,7,-1.8,5926,6,-10,-1,14
Cc1cc(NC(=O)C2CC=CCC2C(=O)O)ccc1NC(=O)c1ccccc1 (centres undefined),6,3.3,6010,-15,1,1,-1
O=C(NCc1cccnc1)c1ccccc1NS(=O)(=O)c1ccccc1,-5,2.2,u,-17,0,5,-5
CC(=O)NC(C)c1nc2ccccc2n1C(C)C (centres undefined),-2,-5.4,6246,7,-1,1,7
CCOC(=O)C1=C(O)c2ccccc2C(=O)/C1=C\c1ccc(CC)cc1,15,9.9,21598*,-28,6,6,10
CC(Sc1nnc(C2CC2)n1C1CC1)C(=O)c1ccc(F)cc1 (centres undefined),x,4.6,x,-4,3,5,6
O=C(NN=C1CCCC1)c1ccc(Cl)cc1,-8,3.4,3575,1,0,6,12
CN(C)S(=O)(=O)c1cccc(NC(=S)Nc2cccc3cnccc23)c1,-1,5.1,3067,-10,9,0,3
Cc1ccccc1N1C(=O)C(Cc2ccc(F)cc2)S/C1=C(\C#N)C(N)=O (centres undefined),-7,4.1,5365,x,15,1,-3
COc1ccc(C(=O)ON=C(N)c2ccccc2)c(OC)c1,x,1.7,x,x,0,11,4
CCOC(=O)CN(C(=O)CSc1nnc(-c2ccncc2)n1CCCN(C)C)c1ccccc1,1,6.8,9426,0,4,-12,3
COC(=O)C(Cc1ccccc1)NC(=O)N1CC(C)OC(C)C1 (centres undefined),x,-1.2,x,x,-7,1,5
CCOc1ccc(NC(=O)c2ccc3nccnc3c2)cc1,17,11,3593,-60,-5,7,17
CS(=O)(=O)C1=C(O)C(=O)N(c2ccccc2)C1c1ccccc1 (centres undefined),-3,4.8,2548,-16,4,17,8
O=C(NN=Cc1ccc(Cl)cc1Cl)C1CC1,x,6.8,3812,-15,0,15,13
O=C(CN1C(=O)NC(Cc2c[nH]c3ccccc23)C1=O)Nc1ccc(F)cc1F (centres undefined),x,1.1,2861,-2,-4,1,1
O=C(COC(=O)c1ccc2ccccc2c1O)Nc1ccccc1,x,2.9,u,-12,-3,-1,0
CCOc1cc(/C=N/NC(=O)C(=O)NC2CC2)cc(Br)c1O,3,x,8570,-18,x,x,x
Cc1ccc(S(=O)(=O)N2CCC(C(=O)OCC(=O)Nc3cc(S(C)(=O)=O)ccc3Cl)CC2)cc1C,6,5.0,5246,-18,-1,-1,1

# An excerpt of these results, as tab-separated lines.
SMILES	BJeLR lethal	Sa RN4220 lethal	Bead autofluor	PrP 5UTR inh	ugtP null kill	Mtb hypoxia inh	Mtb hypoxia inh growth
COc1ccc(OC)c(/C=C/c2nc3ccccc3[nH]c2=O)c1	7	-1.8	5926	6	-10	-1	14
Cc1cc(NC(=O)C2CC=CCC2C(=O)O)ccc1NC(=O)c1ccccc1 (centres undefined)	6	3.3	6010	-15	1	1	-1
O=C(NCc1cccnc1)c1ccccc1NS(=O)(=O)c1ccccc1	-5	2.2	u	-17	0	5	-5
CC(=O)NC(C)c1nc2ccccc2n1C(C)C (centres undefined)	-2	-5.4	6246	7	-1	1	7

# The list goes on:
SMILES,BJeLR lethal,Sa RN4220 lethal,Bead autofluor,PrP 5UTR inh,ugtP null kill,Mtb hypoxia inh,Mtb hypoxia inh growth
COc1cccc(CSc2nc3ccncc3[nH]2)c1,14,-0.3,4237,-54,-1,-3,1
CCOc1ccc(CN2CCNC(=O)C2CC(=O)NCc2csc(C)n2)cc1 (centres undefined),-3,3.2,5970,-3,1,-1,0
CCOc1ccc(/C=N/Nc2ccccn2)cc1OC,7,x,4524,-94,x,x,x
O=C(NCCC(=O)N1CCCC(C(F)(F)F)C1)c1ccc(Br)cc1 (centres undefined),-10,0.4,6176,-25,12,14,1
COCc1cc(C)nc(NCCO)c1C#N,3,6.2,4271,-13,3,4,3
CC(=O)N1CCN(c2ccc(NC(=O)C(c3ccccc3)c3ccccc3)cc2)CC1,4,x,3852,-10,x,x,x
Cc1cccc2cc(CN(Cc3nnnn3C3CCCCC3)C3CCCC3)c3nnnn3c12,-4,0.0,4269,4,-15,-1,4
COc1cc(/C=N/Nc2nn3cnnc3c3ccccc23)ccc1O,15,x,21210*,-21,x,x,x
Cc1nc2ccccn2c1C(=O)NN=Cc1ccc(F)cc1,x,2.3,x,x,9,-1,-2
CN(C)NC(=S)Nc1ccc(Cl)cc1,1,0.8,7105,-32,10,8,2
O=C1OC2(CCCCC2)OC(=O)C1=CNc1nccs1,2,5.8,3100,-25,8,-1,12
O=C(CN1C(=O)NC2(CCCCC2)C1=O)Nc1cc(C(F)(F)F)ccc1N1CCCC1,x,-0.1,5729,-1,5,4,6
Cc1nc(NC(=O)/C=C/c2ccccc2)sc1C(=O)Nc1ccccc1Cl,-13,5.6,u,-5,4,1,1
Cc1ccc(NC(=O)CN(C)C(=O)c2cccc(S(=O)(=O)N3CCCC3)c2)cc1,x,2.0,3621,6,4,-1,4
C1CCC2S[C@H]3CCCCC3NC2C1 (some centres undefined),-5,0.9,5577,-36,6,14,3
CCOc1cc(N2CCOCC2)c(OCC)cc1NC(=O)COc1ncnc2ccc(Br)cc12,8,0.4,2723,2,-5,x,x
C=CCn1c(C)csc1=Nc1ccc(C(=O)O)cc1,-1,-11,3989,-20,7,9,2
CCN(CC)CCN1C(=O)C(=O)/C(=C(/O)c2c(C)[nH]c(C(=O)OC)c2C)C1c1cccc(OC)c1 (centres undefined),-2,1.9,18213*,-18,-1,-1,4
CCS(=O)(=O)N1Cc2ccccc2CC1C(=O)NCC12CC3CC(CC(C3)C1)C2 (centres undefined),10,4.8,9669,-30,-2,5,6
CCCCNC(=O)Nc1nc2ccc(CC)cc2s1,-7,1.0,4387,-54,15,7,8
CCOc1ccc(C(=O)CC(Sc2ccc(C)cc2)C(=O)O)cc1 (centres undefined),11,2.9,4363,-1,5,-3,7
COc1ccc(C(=O)N2CCCC(N3CCN(c4ccccc4F)CC3)C2)c(OC)n1 (centres undefined),-1,5.5,4323,-9,10,3,0
COc1ccc(/C=C\C(=O)NCC(=O)NN=Cc2ccc(O)cc2O)cc1,x,0.7,x,x,-2,-2,4
Cc1c([C@@H]2C[C@H]3CN(Cc4cccc(Cl)c4)C(=O)[C@]34CCCN24)cnn1C,1,8.0,8790,-12,15,3,-7
CC(C)(C)OC(=O)NCCCC[C@@H](C(=O)N1CCN(C(=O)OC(C)(C)C)CC1)n1cc(CCC(=O)O)nn1,-9,x,3476,-30,x,x,x
# Next compounds:
SMILES,BJeLR lethal,Sa RN4220 lethal,Bead autofluor,PrP 5UTR inh,ugtP null kill,Mtb hypoxia inh,Mtb hypoxia inh growth
Cc1ccc(C(=O)N2CCCC(C(F)(F)F)C2)cc1S(=O)(=O)N1CCOCC1 (centres undefined),x,2.6,8295,-18,0,-6,-5
CSc1nnc(-c2cnccn2)n1C,3,6.2,23864*,-4,10,2,3
CCOC(=O)c1ccc(N2CCOCC2)c(NC(=O)c2nccnc2C(=O)O)c1,-6,0.7,5750,-7,0,-4,10
O=C(CN1C(=O)C(=O)N(Cc2ccco2)C1=O)Nc1ccccc1,x,7.1,3455,-14,7,15,8
O=C(CN1CCN(Cc2ccc3c(c2)OCO3)CC1)Nc1ccc2c(c1)OCCO2,7,2.9,2638,-8,8,-1,-1
c1csc(-c2nc3ccccc3[nH]2)c1,x,1.7,2742,-57,2,x,x
COCCn1c(=O)c2ccccc2c2ccccc2c1=O,-7,0.2,2030,-17,7,11,2
COc1ccc(CCNC(=O)c2cc(C(=O)c3cc(C)ccc3O)cn(CCc3ccc(OC)cc3)c2=O)cc1,13,4.3,2608,-18,-3,-5,3
Cc1cc(C(=O)CSc2nnc3c(Cl)cc(Cl)cn23)c(C)n1C,-10,-1.2,2844,-18,-5,x,x
Cc1ccc(S(=O)(=O)c2cnc3cc(C)nn3c2N)cc1,-7,5.0,3210,-2,7,1,0
